Screening data from PubChem.
PTPN22 inh 2: inhibitors of human LYP (PTPN22) phosphatase | Q9Y2R2 | recombinant LYP catalytic domain, DiFMUP fluorescence | inhibition, % at 2 µM | hit rate 0.21% among 96,000 | AID 640;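 active means inhibition at 2 µM at or above a set limit, the screen mean plus 3 SD, cut at about 24% in these data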;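 further: 0% = DMSO with enzyme and 100% = enzyme fully blocked by orthovanadate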
PostGolgi yeast: growth inhibition of a yeast mutant, post-Golgi transport screen | post-Golgi transport phenotypic cell assay | inhibition, % at 10 µM | hit rate 0.9% among 98,000 | AID 739;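 further: yeast cells grown in 1536-well plates; yeast grown about 18 h at 30C before absorbance read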
PTK2B oligo ant: Pyk2 (human) oligomerization antagonism; Q293 cells, Pyk2 FERM NanoBiT luminescence; stronger effect = lower value; z-score (the deposit names both 25 µM and 10 µM); hit rate 0.83% among 99,000; AID 1347419;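 active means Z-score of -3 or lower, scaled per plate to the spread of control and sample wells; inactive means z-score above -3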;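 further: negative z-score means lost luminescence so less FERM oligomerization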
DAT uptake mod: modulates human dopamine transporter uptake under cocaine. B-score at 10 µM. LLC-PK1 hDAT cells, [14C]-dopamine uptake with cocaine IC80; actives deviate in either direction. hit rate 1.3% among 110,000. Q01959;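 active means Z score or B-score, a plate-position-corrected score, falls beyond the plate's 99.7% confidence bounds, in either direction; inactive means both scores lie inside the 99.7% bounds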;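 further: scored against the spread of the other compound wells on the same plate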
Target sequence (Q01959 whole entry, looked up): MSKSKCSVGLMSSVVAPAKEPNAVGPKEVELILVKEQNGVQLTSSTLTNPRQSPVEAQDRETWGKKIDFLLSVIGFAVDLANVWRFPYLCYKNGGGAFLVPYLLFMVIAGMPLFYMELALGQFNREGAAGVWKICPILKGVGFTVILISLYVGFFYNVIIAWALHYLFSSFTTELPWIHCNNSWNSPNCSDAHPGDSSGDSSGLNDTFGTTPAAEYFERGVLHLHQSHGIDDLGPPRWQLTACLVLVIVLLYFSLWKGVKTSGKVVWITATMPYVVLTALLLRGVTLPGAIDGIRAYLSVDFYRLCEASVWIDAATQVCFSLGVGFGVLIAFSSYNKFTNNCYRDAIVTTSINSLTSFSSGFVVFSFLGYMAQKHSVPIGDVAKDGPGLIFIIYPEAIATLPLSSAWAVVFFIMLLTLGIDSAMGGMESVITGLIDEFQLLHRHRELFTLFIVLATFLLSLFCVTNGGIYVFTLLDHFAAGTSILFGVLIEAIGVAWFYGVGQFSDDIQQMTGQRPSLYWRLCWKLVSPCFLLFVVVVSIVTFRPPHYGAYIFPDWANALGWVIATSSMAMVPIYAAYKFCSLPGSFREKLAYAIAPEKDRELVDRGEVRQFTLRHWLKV
PostGolgi ctrl: inhibits growth of the yeast control strain | inhibition, % at 10 µM | efflux-deficient yeast background strain, growth absorbance A615, 16 h | hit rate 5% among 98,000
LYP act: increases human PTPN22 phosphatase activity; recombinant LYP, DiFMUP fluorescence; 0 = plate median, 100 = signal doubled; AID 697; hit rate 0.11% among 96,000; activation, % at 2 µM; Q9Y2R2;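 active means activation at 2 µM above a set limit, the mean plus 5 SD, cut at about 37% in these data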
E coli WT exp: E. coli BW25113 growth inhibition, expanded screen; OD600 absorbance; growth inhibition, % at 100 µM; hit rate 0.15% among 98,000; AID 710;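 active means growth inhibition above about 50% at one test dose, limit read from the data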;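 further: growth measured after 20 h incubation at 37 °C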
The depositor's hits bear a star; · = not tested or not shown; & = joins results of further samples. Unless noted, no stated cut-off is given here; in the data, active means inhibition above about 30%; inactive means the rest. These rows are one share of the data; count on the stated rates, not on these rows.

SMILES	PTPN22 inh 2	PostGolgi yeast	PTK2B oligo ant	DAT uptake mod	PostGolgi ctrl	LYP act	E coli WT exp
CN(C)c1ncc(S(=O)(=O)c2ccccc2)c(-c2ccc(Cl)cc2Cl)n1	7.9	-1.6	-0.47	·	24.8	-8.8	-19.0
O=C(Oc1ccccc1)c1c(Cl)cccc1P(=O)(O)O	-2.1	-5.2	0.23	-0.0138	8.4	0.0	-15.0
COc1ccccc1C(=O)N/C(=C/c1ccccc1)C(=O)NC(CCSC)C(=O)O (stereo not given)	-10.7	-8.3	1.02	-0.0946	-2.7	15.1	1.0
Cc1cccc(Oc2ncnc3onc(C)c23)c1C	-7.4	-3.0	-0.45	-0.271	-2.9	10.9	-9.0
O=C(N/N=C/c1ccco1)c1ccccn1	3.5	3.4	-0.5	1.56	0.8	-0.3	1.0
Cc1cc(C)n(-c2cc(N3CCN(C(=O)c4cccc(Br)c4)CC3)ccc2[N+](=O)[O-])n1	10.2	-3.9	-1.41	2.38	8.9	-5.2	-16.0
Cc1ccc2nc(NC(=O)COC(=O)c3ccc(Br)o3)sc2c1	-4.0	-4.0	1.9	0.305	-7.7	1.2	-10.0
COC(=O)c1ccc(C(=O)OC)c(NC(=S)N2CCN(c3ccccc3)CC2)c1	9.3	-3.6	-0.6	0.341	-2.6	-6.1	-8.0
COc1cccc(C(=O)N/N=C(/c2ccccc2)c2ccccn2)c1	1.9	6.1	0.34	0.431	22.1	2.2	11.0
CCCS(=O)(=O)N1CCCC(C(=O)N2CCOCC2)C1 (stereo not given)	2.6	7.8	-0.42	0.0112	14.7	-3.5	-1.0
Cc1ccc2oc(-c3cccc(NC(=S)NC(=O)/C=C/c4ccco4)c3)nc2c1	11.9	-5.8	0.59	-0.529	-5.0	-9.3	-1.0
Cn1cnnc1SCC(=O)N1N=C2/C(=C/c3ccco3)CCCC2C1c1ccco1 (stereo not given)	-12.3	9.6	0.01	0.0402	1.8	14.6	1.0
CCCCNC(=O)C(CC)Sc1nc2sc(C(=O)OC)c(C)c2c(=O)n1N (stereo not given)	-3.7	12.1	1.3	-0.421	8.5	1.6	-5.0
CCN1CCN(C(=O)CS(=O)Cc2nc(-c3ccc(OC)cc3)oc2C)CC1 (stereo not given)	-7.6	-1.2	·	-1.26	-2.6	5.2	3.0
O=C(Oc1ccc2cc(Br)ccc2c1)c1cccnc1	2.5	-6.4	1.59	0.859	-1.9	2.9	-9.0
CCCOc1ccc(-c2nc(C#N)c(NCCCn3ccnc3)o2)cc1	5.1	-1.1	-0.55	-1.38	6.3	-1.9	-2.0
C=CCn1c(Cc2ccc(OC)cc2)nnc1SCC(=O)c1cccc([N+](=O)[O-])c1	-2.8	0.6	-0.16	-0.777	11.6	4.9	7.0
Cc1ccc(CS(=O)(=O)CCC(=O)N2CCOCC2)cc1	-4.7	-18.6	0.53	0.00485	11.6	4.6	0.0
CC(=O)NC(O)C(=O)c1ccco1 (stereo not given)	3.8	-3.9	0.34	-0.464	23.9	-4.5	1.0
Cc1[nH]nc(-c2ccc(O)cc2O)c1-c1ccc(Cl)cc1	-6.2	15.7	-1.14	0.548	85.4*	4.7	30.0
Cn1c(CCN2CCCCC2)nc2cc(NS(=O)(=O)c3ccccc3)ccc21	-3.0	0.8	-1.28	0.13	2.8	1.5	-1.0
COc1ccc(/C=N/Nc2nonc2N)cc1	-6.5	8.6	0.29	0.535	-4.1	3.6	27.0
Cc1cc2cc3c(N)[nH]nc3nc2cc1C	-13.7	-6.0	1.44	0.439	8.9	17.1	1.0
O=C(c1ccco1)N1CCN(C(=O)c2ccc(COc3ccc4c(c3)CCC4)o2)CC1	15.7	5.3	-0.5	3.66*	10.3	-13.9	-5.0
C/C(CC(=O)Nc1ccccn1)=N\NC(=O)C(=O)Nc1cccc(Cl)c1C	-9.1	-6.5	0.61	0.389	3.8	13.5	-14.0
C=CCNC(=O)c1onc(CSc2cc(C)cc(C)c2)c1C(=O)O	8.4	-3.1	·	-0.256	5.2	-5.4	-6.0
CCN(CC)c1nc(Nc2ccccc2)nc(Oc2ccc(C(=O)OC)cc2)n1	15.1	7.3	-2.05	-0.383	5.2	-12.2	-13.0
CCCN(c1nc(C)cc(OC)n1)S(=O)(=O)c1ccccc1	-17.7	-4.7	-0.86	-0.565	24.0	13.7	1.0
O=C(CSc1nnc(Cc2cc(=O)[nH]c(=O)[nH]2)n1-c1ccccc1)N1CCCc2ccccc21	-15.7	5.1	1.46	1.29	17.2	13.6	3.0
Nc1ccc2oc(CCc3ccccc3)nc2c1	-0.6	4.0	-2.38	0.138	29.4	-1.5	5.0
CC(C)(C)C1CCC2(CC1)NC(CO)(CO)CO2 (stereo not given)	1.2	-4.0	1.68	-0.722	27.7	-2.7	2.0
CC1=NN(c2ccc(C)cc2C)C(=O)C1C(c1ccccc1)C1C(=O)N(c2ccc(C)cc2C)N=C1C (stereo not given)	3.0	9.4	0.83	-0.171	-4.1	2.1	-11.0
O=C1NC(=O)C(c2ccccc2)(c2ccccc2)N1	8.2	0.9	·	-0.0597&-0.195	-3.2	-6.0	5.0
COC(=O)C(CCSC)NC(=O)CNS(=O)(=O)c1ccc(F)cc1 (stereo not given)	12.3	0.2	0.54	0.688	-0.3	-8.6	11.0
COC(=O)CSc1nnc2n(C3CCCCC3)c(=O)c3c4c(sc3n12)CCCC4	1.4	4.8	-1.41	-0.00787	21.4	-1.1	-12.0
CCc1ccc(OCC(=O)NC(=S)Nc2ccc(C)cc2C)c(Br)c1	8.2	-0.2	-0.93	-1.21	0.4	-6.2	-4.0
CC(C)Oc1ccc(C2CC(=O)NC3=C2C(=O)CCC3)cc1 (stereo not given)	2.9	6.7	0.72	-0.109	4.5	-4.3	-2.0
O=C(C(Cc1ccccc1)N1C(=O)C2C3C=CC(C3)C2C1=O)N1CCCCCC1 (stereo not given)	-2.8	-26.8	-0.15	-0.188	10.5	1.1	-1.0
CCC(C)(C(=O)NC1CCCC1)N(C(=O)c1ccccn1)c1ccccc1 (stereo not given)	3.5	2.9	0.01	0.749	6.2	-3.2	1.0
COC(=O)Sc1nnc(-c2ccc(Br)cc2)o1	-0.1	4.7	·	0.445	14.6	-2.2	-1.0

Reformatted with bars between the fields: 3 of the compounds above.
Compound | PTPN22 inh 2 | PostGolgi yeast | PTK2B oligo ant | DAT uptake mod | PostGolgi ctrl | LYP act | E coli WT exp
COC(=O)CSc1nnc2n(C3CCCCC3)c(=O)c3c4c(sc3n12)CCCC4 | 1.4 | 4.8 | -1.41 | -0.00787 | 21.4 | -1.1 | -12.0
O=C(C(Cc1ccccc1)N1C(=O)C2C3C=CC(C3)C2C1=O)N1CCCCCC1 (stereo not given) | -2.8 | -26.8 | -0.15 | -0.188 | 10.5 | 1.1 | -1.0
O=C1NC(=O)C(c2ccccc2)(c2ccccc2)N1 | 8.2 | 0.9 | · | -0.0597&-0.195 | -3.2 | -6.0 | 5.0

(cont.)
SMILES	PTPN22 inh 2	PostGolgi yeast	PTK2B oligo ant	DAT uptake mod	PostGolgi ctrl	LYP act	E coli WT exp
O=C(O)c1c[nH]c2cc(C(F)(F)F)ccc2c1=O	22.8	0.3	0.31	-0.423	15.1	-19.8	22.0
COc1ccc(C2C(Oc3ccccc3)C(=O)N2c2cc(C)ccc2C)cc1OC (stereo not given)	6.1	2.7	-1.48	·	16.4	-2.3	-3.0
CCc1nnc(NC=C2C(=O)OC(C)(C)OC2=O)s1	1.2	2.4	0.99	0.0901	19.6	-1.9	-5.0
Cn1nc(C(F)(F)F)c(C(=O)Nc2ccc(C(F)(F)F)cc2)c1Cl	-6.0	14.8	-1.09	-0.236	9.5	10.3	10.0
COc1ccccc1NC(=O)CSc1nccc(=O)[nH]1	-2.0	-5.8	-0.56	0.626	0.9	1.3	2.0
CCCCN(C(=O)c1c(C)[nH]c(C(=O)OCC)c1C)c1ccccc1	-2.8	-4.5	-0.33	1.15	-1.3	0.6	3.0
CCN1C(=O)C(CC(=O)Nc2ccc(Br)cc2)N(CCCc2ccccc2)C1=S (stereo not given)	10.5	23.4	1.1	-0.787	22.2	-6.7	-18.0
O=C(CN1C(=O)C2C3C=CC(C3)C2C1=O)Nc1cccc2c1CCCC2 (stereo not given)	-10.2	0.0	0.83	-0.222	-1.2	7.6	-2.0
CN(/C=C/C(=O)C(F)(F)F)Cc1ccccc1	14.4	-1.2	0.25	0.0281	5.5	-11.7	9.0
Clc1ccc(CSc2nnc(-c3cccnc3)o2)cc1	6.0	-9.0	-0.04	0.788	2.4	-4.0	-11.0

Laid out differently: entries from further up
The line under a structure holds: PTPN22 inh 2, PostGolgi yeast, PTK2B oligo ant, DAT uptake mod, PostGolgi ctrl, LYP act, E coli WT exp
> CCc1nnc(NC=C2C(=O)OC(C)(C)OC2=O)s1
    1.2, 2.4, 0.99, 0.0901, 19.6, -1.9, -5.0
> Clc1ccc(CSc2nnc(-c3cccnc3)o2)cc1
    6.0, -9.0, -0.04, 0.788, 2.4, -4.0, -11.0
> COc1ccc(C2C(Oc3ccccc3)C(=O)N2c2cc(C)ccc2C)cc1OC (stereo not given)
    6.1, 2.7, -1.48, ·, 16.4, -2.3, -3.0

Additional results:
SMILES	PTPN22 inh 2	PostGolgi yeast	PTK2B oligo ant	DAT uptake mod	PostGolgi ctrl	LYP act	E coli WT exp
COc1ccc(N2CCN(c3oc(Cc4ccccc4)nc3C#N)CC2)cc1	6.0	8.3	-0.94	0.502	2.0	-4.4	-17.0
Cc1ccc(Oc2nnc(-c3ccccc3)cc2C#N)cc1	-6.2	3.0	1.49	-0.35	3.9	11.2	-8.0
Cc1cccc(C(=O)NC2CCN(C(=S)NCc3ccco3)CC2)c1	0.0	1.8	0.33	0.836	-11.9	3.4	-6.0
C=CCn1c(SCc2ccc(C#N)cc2)nnc1-c1ccc(C)cc1	0.3	3.9	-0.58	1.8	15.3	3.1	4.0
Cc1nnc(NCc2ccco2)s1	-1.1	-4.3	0.81	-0.669	9.9	2.5	0.0
COC(=O)c1cccc(-n2[nH]nnc2=S)c1	3.1	12.6	1.01	-0.0188	0.6	-1.7	33.0
Cc1[nH]c(=O)c(C#N)c2c1CSC(C)(C)C2	-3.8	19.7	0.34	-2.49*	8.0	7.5	0.0
COC(CNC(=O)c1ccc(N2CCCC2=O)cc1)OC	3.1	1.5	0.19	-0.675	-1.2	-2.5	-6.0
CC(C)(C)c1ccc(C(=O)c2c[nH]c(C(=O)NCCCn3ccnc3)c2)cc1	-4.3	20.4	-1.03	0.386	-2.3	7.3	17.0
CC(=O)Nc1c(NC(C)C)c2ccccc2oc1=O	5.5	-2.3	0.59	-0.264	27.9	-1.5	-5.0
O=C(O)c1c[nH]c(=S)n1-c1ccc(F)cc1	10.6	-21.9	1.21	1.54	28.1	-8.8	-4.0
COc1ccc(CN2CC(C(=O)NCCC3=CCCCC3)CC2=O)cc1 (stereo not given)	-6.6	1.5	0.31	1.2	12.3	5.0	7.0
O=C(NCc1ccco1)c1ccc(N2CCCC2=O)cc1	-4.3	1.7	0.05	-0.764	3.4	2.4	3.0
Cc1cc(C)c2[nH]c(=O)c(CN(Cc3ccco3)C(=O)c3cccs3)cc2c1	8.0	14.1	·	-0.529	11.0	-2.8	-8.0
Cc1ccc2cn[nH]c2c1NC(=S)NC(=O)c1ccccc1	8.9	1.1	0.4	-0.177	-3.5	-5.8	-8.0
CC1=C(C(N)=O)C(c2ccccc2)n2nc(-c3ccncc3)nc2N1 (stereo not given)	-10.6	17.6	-1.13	-0.936	-2.7	9.9	0.0
O=C(Nc1ccc2c(c1)OCO2)c1ccc[n+]([O-])c1	-2.5	5.5	-0.09	0.271	5.9	4.6	2.0
CCOC(=O)c1c[nH]c2c(C)cc(C)cc2c1=O	-2.6	-6.7	0.6	0.377	2.9	6.4	0.0
O=C(c1cccnc1)N1CCN(Cc2cccc(F)c2)CC1	7.7	2.7	0.01	·	-6.0	-11.5	7.0
CCCNC(=O)c1ccccc1NC(=O)COc1ccc(OC)cc1	-0.9	6.5	0.53	-0.213	-1.7	3.2	0.0
CC(=O)NC1(NC(C)=O)CCN(C)C(c2ccccc2)C1C (stereo not given)	5.8	7.8	0.6	0.284	1.2	-6.8	-1.0
CC(C)NC(=O)c1n[nH]c(=O)c2ccccc12	-11.2	3.5	0.82	-0.165	7.4	7.7	5.0
C=CCn1c(CSCc2ccccc2)nnc1SCC(=O)NCc1ccccc1	-3.6	2.7	-1.24	1.46	1.4	5.4	16.0
COC(=O)c1ccccc1OCCCOc1ccc(C=O)cc1OC	3.0	-2.9	1.43	-1.2	2.4	1.1	3.0
Cc1c(NC(=O)C(C)N2C(=O)c3ccccc3C2=O)c(=O)n(-c2ccccc2)n1C (stereo not given)	3.5	0.2	-0.35	0.027	12.3	-4.1	-3.0
O=S(Cc1ccccc1)CC(O)(c1ccccc1)c1ccccc1 (stereo not given)	-0.3	-3.5	0.21	-0.498	-1.7	-0.6	-5.0
